PrP UTR inh – inhibition of PrP 5' UTR reporter expression; inhibition, % (no concentration beside the values); 340,000 tested, 0.35% active; cell-based PrP 5' UTR mRNA reporter, plate reader;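 active = every replicate at 50% or more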;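 note: 0 = median of the neutral control wells; tested in H4 reporter cells; numbers are from one replicate; inactives centre near -14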
Mtb hypoxia inh – inhibitors of hypoxia-regulated fluorescent reporter in Mycobacterium tuberculosis; M. tuberculosis hypoxia-regulated fluorescent reporter, fluorescence; fluorescence inhibition, % (test concentration not listed); 300,000 tested, 0.1% active;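 active = 35 to 45% if threefold the growth effect, above 45% if 1.5-fold the growth effect; inactive = the rest, general growth blockers included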;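 note: wells of about 50 µL received 100 nL stock; 0% = vehicle wells and 100% = reference inhibitor wells; whole bacteria with a GFP reporter of the hypoxia response; strong numbers were not always called active; many hits fall short of the cut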
Autofluor counter – flagged as autofluorescent in microsphere protease counterscreen; AID 624483; 360,000 tested, 3.1% active; fluorescence intensity (test concentration not listed); compound autofluorescence counterscreen, microsphere flow cytometry; stronger effect = higher value;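 active = at least 3 SD above the mean of all compounds, about 16000 in these data; inconclusive = too few beads counted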;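 note: 100 nL of 1 mM stock went into each well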
ugtP null kill – kills S. aureus RN4220 lacking UgtP | S. aureus RN4220 ugtP deletion, OD600 growth, 16 h; some inactives read as strong as hits | growth inhibition, % (concentration not given with the values) | 330,000 tested, 0.54% active;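 active = z-score under -3 and OD600 up to 0.15 on both plates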;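 note: plate controls were untreated wells for no effect and antibiotic for full effect; wells of about 80 µL received 100 nL stock; the first replicate is given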
BJeLR viability – BJeLR cell viability loss. BJeLR (HRASV12) viability, CellTiter-Glo ATP luminescence, 48 h; reference of the scale not given here. inhibition, % (test concentration not listed). 300,000 tested, 0.17% active. AID 1554;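 active = replicate mean above 50%; inconclusive = above 50% but judged a plate artefact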;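 note: 50 nL library stock added to about 25 µL; numbers are from one replicate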
RN4220 kill – S. aureus RN4220 growth inhibition; 330,000 tested, 0.33% active; inhibition, % (no concentration beside the values); OD600, 16 h;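 active = z-score of -3 or lower and OD600 up to 0.18 on both plates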;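 note: plate controls were untreated cells for no effect and reference antibiotic for full effect; stock transfer was 100 nL into about 80 µL; one replicate is shown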
Mtb hypoxia inh growth – also measured in Mtb hypoxia inh; calls as there; growth inhibition, %; measured here: M. tuberculosis growth (absorbance);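 0% = vehicle and 100% = reference antibiotic; read after six days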
Numbers without * were called inactive; ? = inconclusive; · = not tested or not shown; & = joins results of further samples.

SMILES | PrP UTR inh | Mtb hypoxia inh | Mtb hypoxia inh growth | Autofluor counter | ugtP null kill | BJeLR viability | RN4220 kill
Nc1nncn1C(=O)CCCN1C(=O)c2ccccc2C1=O | -7 | -6 | 1 | 3238 | 2 | 0 | 1.5
COCC(=O)N1CCC(Oc2ccc(C(=O)NCc3cnc(C)cn3)cc2)CC1 | -17 | 5 | 4 | 3732 | 4 | -7 | 17
CN1CCc2c(sc(N=Cc3ccco3)c2C(N)=O)C1 | · | 13 | 10 | · | 2 | · | 2.2
CC1CC(C)CN(C(=O)Cc2c(C(=O)O)[nH]c3ccc(Cl)cc23)C1 (stereo not drawn) | -22 | -2 | 13 | 4665 | 0 | -15 | 18
CC(c1ccccc1)N1CC(C(=O)N2CCN(Cc3ccc(C#N)cc3)CC2)CC1=O (stereo not drawn) | -13 | 11 | 3 | 5667 | 9 | · | 2.4
COc1cc(/C=c2\sc3n(c2=O)CCCN=3)ccc1O | -30 | · | · | 2868 | · | -11 | ·
C=CCOC(=O)C1=C[C@@H](c2ccc(C(F)(F)F)cc2)C[C@@H](OCc2ccc(CO)cc2)O1 | -16 | · | · | 2992 | · | -1 | ·
CC1CCCCN1C(=O)COc1ccc(S(=O)(=O)N2CCCC2)cc1[N+](=O)[O-] (stereo not drawn) | -15 | 7 | 5 | ? | 3 | · | 2.5
O=C(NCCN1CCCC1)c1ccccc1Cl | -9 | 3 | 12 | 2447 | -2 | 2 | 3.7
COc1ccc(S(=O)(=O)Nc2c(NC3CCCCC3)c3ccccc3oc2=O)cc1Cl | -10 | -6 | -8 | 5424 | -26 | -2 | -4.2
Cn1nnc(NC(=S)NC(=O)c2ccccc2)n1 | -7 | -6 | -21 | 4422 | 5 | -1 | 2.3
COc1ccccc1C(=O)OCC(=O)Nc1ccc(Cl)cn1 | -27 | 5 | 12 | 4180 | -2 | -1 | 4.6
COc1ccc(-n2nc(C(=O)NCC(=O)N3CCN(c4ccccn4)CC3)c3ccccc3c2=O)cc1Cl | -11 | -10 | -4 | 3976 | 6 | -7 | -6.0
COc1ccc(NC(=O)c2ncn[nH]2)cc1 | -7 | 4 | 12 | 3861 | -1 | -5 | 3.3
COc1ccc(CCNC(=O)COC(=O)Cn2cnc3c2c(=O)n(C)c(=O)n3C)cc1 | -5 | 5 | 7 | 5355 | -2 | · | -1.7
Cc1ccc(S(=O)(=O)NC(C(=O)Oc2ccc3c(C(F)(F)F)cc(=O)oc3c2)c2ccccc2)cc1 (stereo not drawn) | -26&-11 | · | · | 2083 | · | 11 | ·
O=C1C(Cc2ccccc2)C(c2ccccc2)N1c1ccccc1 (stereo not drawn) | -6 | 3 | 6 | 3084 | 48 | 3 | -2.9
CN(C)S(=O)(=O)c1cc(C(=O)NCc2ccccc2)c(Cl)cc1Cl | -14 | 10 | 3 | 5288 | 1 | 3 | 1.8
COc1ccc(C(=O)NC2CCN(C(=S)Nc3ccccc3C)CC2)cc1 | -28 | 1 | 1 | 4094 | 10 | 2 | 4.6
CCOC(=O)CC(c1ccc([N+](=O)[O-])cc1)n1c(C)ccc1C (stereo not drawn) | -17 | 14 | 9 | 4190 | 3 | 3 | 4.7
O=C(O)c1ccc(Cn2cnc3scc(-c4ccccc4)c3c2=O)cc1 | 25 | 12 | 5 | 4229 | 5 | 3 | 28
CCOC(=O)N1CCN(C(=O)CNS(=O)(=O)c2c(C)cc(C)cc2C)CC1 | 2 | -4 | 8 | 3651 | 2 | -3 | 3.5
CCC(C)NC(=O)/C=C/c1cccs1 (stereo not drawn) | -42 | · | · | 2017 | 4 | 9 | 1.0
Cn1c(N)c(C(=O)CNC2CCCCC2)c(=O)n(C)c1=O | -22 | -3 | -4 | 3821 | 0 | 1 | 1.7
COc1ccc(C2C(C(=O)Nc3cccc(C)n3)c3ccccc3C(=O)N2C)cc1OC (stereo not drawn) | -16 | 8 | 19 | 3875 | -1 | · | 3.4
CSc1nc2sc3c(c2c(=O)[nH]1)CCC(C)C3 (stereo not drawn) | -30 | 3 | 5 | 10814 | -17 | -13 | 8.2
O=C(Nc1ccccc1NC(=O)c1csnn1)c1csnn1 | -38 | 26 | 13 | 4430 | 10 | -1 | 5.8
COc1ccc(S(=O)(=O)N(C(=O)C(C)C)c2ccc3oc(=O)sc3c2)cc1 | -6 | -9 | 11 | 10607 | -29 | -3 | 7.8
CCCCc1ccc(NC(=O)C(=O)NCCN2CCN(C(=O)c3ccc([N+](=O)[O-])cc3)CC2)cc1 | -23 | 3 | 5 | 3939 | 2 | 9 | 8.0
Cc1ccc2cc(C#N)c(N3CCCN(C(=O)C4CCCO4)CC3)nc2c1C (stereo not drawn) | -8 | 3 | 1 | 16171* | -1 | -1 | 3.2
OCCNCc1cccc(OCc2ccc(Cl)cc2)c1 | 0 | -2 | -2 | 2780 | -1 | 2 | -1.2
Cc1nc2nc(C)c(CCC(=O)N3CCC4(CC3)OCCO4)c(C)n2n1 | · | 5 | -1 | 8015 | 8 | 13 | 0.6
COc1ccc2c(c1)O[C@H](c1ccc3c(c1)OCO3)[C@@H](OC(=O)N[C@H]1CCCc3ccccc31)C2=O | · | 9 | 6 | · | -14 | · | 6.2
Brc1ccc(CN2C3=NCCCN3c3ccccc32)cc1 | -19 | 24 | 29 | 2436 | -7 | -3 | -2.6
O=Cc1ccc(C(=O)OCC(=O)NC(=O)Nc2ccccc2F)cc1 | -18 | 4 | 3 | 3833 | 2 | · | 3.1
Cc1ccc(CNC(=O)c2nccnc2C(=O)O)cc1 | 0 | 5 | 8 | 3434 | 18 | -11 | 2.9
CCOC(=O)N1CCN(CC(=O)Nc2ccc(F)cc2F)CC1 | 6 | -3 | 3 | 4388 | 5 | -19 | 2.7
CCN(CC)CCOC(=O)C1(c2ccc(OC)c(OC)c2)CCCC1 | -16 | 1 | 5 | 10453 | 5 | 8 | 3.5
CC(=O)N1[C@@H]2CC3C4CC=C5C[C@@H](O)CC[C@]5(C)C4CC[C@]3(C)[C@@]21C(C)=O (stereo partly drawn) | 3 | 0 | 3 | 2015 | 5 | -15 | 1.8
Cc1ccc(C(=O)CC2(O)C(=O)N(Cc3ccccc3Cl)c3ccccc32)o1 (stereo not drawn) | -4 | 2 | 6 | 3021 | -10 | -4 | -8.2
CCOC(=O)c1sc(=NC(=O)c2ccc(S(=O)(=O)N3CC(C)OC(C)C3)cc2)n(C)c1C (stereo not drawn) | -13 | -3 | -6 | 6394 | 14 | -11 | -1.3
CC1(C)CC(=O)C=C(c2cccc3c2Oc2ccccc2S3)C1 | -27 | 11 | -3 | 4046 | 1 | · | -0.9
O=C(N/N=C/C(Br)=C/c1ccccc1)c1ccccc1[N+](=O)[O-] | 4 | · | · | 4374 | · | -1 | ·
O=C(CC=NOCc1ccc([N+](=O)[O-])cc1)Nc1ccc(Cl)cc1 | · | 3 | 4 | · | -1 | · | -0.8
COc1cc(/C=N/n2cnnc2)ccc1OCc1ccccc1 | -27 | · | · | 4181 | · | -10 | ·

Shown as labelled records: entries from further up
COc1ccc(C(=O)NC2CCN(C(=S)Nc3ccccc3C)CC2)cc1
- PrP UTR inh: -28
- Mtb hypoxia inh: 1
- Mtb hypoxia inh growth: 1
- Autofluor counter: 4094
- ugtP null kill: 10
- BJeLR viability: 2
- RN4220 kill: 4.6
CSc1nc2sc3c(c2c(=O)[nH]1)CCC(C)C3 (stereo not drawn)
- PrP UTR inh: -30
- Mtb hypoxia inh: 3
- Mtb hypoxia inh growth: 5
- Autofluor counter: 10814
- ugtP null kill: -17
- BJeLR viability: -13
- RN4220 kill: 8.2
COCC(=O)N1CCC(Oc2ccc(C(=O)NCc3cnc(C)cn3)cc2)CC1
- PrP UTR inh: -17
- Mtb hypoxia inh: 5
- Mtb hypoxia inh growth: 4
- Autofluor counter: 3732
- ugtP null kill: 4
- BJeLR viability: -7
- RN4220 kill: 17
COc1ccc(CCNC(=O)COC(=O)Cn2cnc3c2c(=O)n(C)c(=O)n3C)cc1
- PrP UTR inh: -5
- Mtb hypoxia inh: 5
- Mtb hypoxia inh growth: 7
- Autofluor counter: 5355
- ugtP null kill: -2
- BJeLR viability: ·
- RN4220 kill: -1.7

The listing continues.
SMILES | PrP UTR inh | Mtb hypoxia inh | Mtb hypoxia inh growth | Autofluor counter | ugtP null kill | BJeLR viability | RN4220 kill
CC1CC2(CCCC2)N(C(=O)N(C)C)c2ccc(F)cc21 (stereo not drawn) | -19 | 15 | -6 | 3875 | 3 | -1 | 3.8
COc1ccc(C(=O)N2CCC(NC(=O)C(Cc3ccccc3OC)NC(C)=O)CC2)cc1 (stereo not drawn) | -8 | 5 | -2 | 3005 | 10 | -13 | -0.4
CC(C)NC(=O)C(=O)NCCC1CCCCN1S(=O)(=O)c1cccs1 (stereo not drawn) | -4 | 11 | 1 | 5876 | 8 | -1 | 4.2
COC(=O)C1=C(C)NC(=O)NC1c1ccc(-c2ccccc2Cl)o1 (stereo not drawn) | -8 | 1 | -3 | 4725 | 2 | 1 | 9.4
C#CCNC(=O)C1=C[C@@H](c2ccc(C#C)cc2)C[C@@H](OCc2ccc(CO)cc2)O1 | -3 | · | · | 3923 | · | 5 | ·
COc1ccc(/C=N\Nc2ccccc2[N+](=O)[O-])c(C(=O)O)c1OC | -8 | · | · | 4334 | · | 4 | ·
Cc1ccc(NC2CC(=O)N(CCc3ccccc3)C2=O)cc1 (stereo not drawn) | · | 4 | 6 | 10888 | 1 | 1 | 1.7
CNC(=O)CN(Cc1ccccc1)S(=O)(=O)c1ccccc1 | -16 | 12 | 7 | 10669 | 3 | 1 | 6.4
Cc1nc2cc(C(=O)OCC(=O)Nc3ccc(C#N)cc3)ccc2n1-c1ccccc1 | -18 | 0 | -2 | 2786 | -15 | -1 | 1.7
CC(CCc1ccccc1)NC(=O)c1ccccc1C(=O)O (stereo not drawn) | -27 | 5 | -1 | 3919 | 0 | 1 | 2.1
CNC(=O)CC1C(=O)N(c2ccc(F)cc2)C(=S)N1NC(=O)c1ccc(Cl)cc1 (stereo not drawn) | -11 | -9 | 8 | 3558 | -1 | 1 | -0.8
O=C(CC(=O)NN=Cc1c(F)cccc1Cl)NCCc1ccccc1 | · | 2 | 6 | · | 3 | · | 5.9
O=C(Cc1cccs1)Nc1nnc(SCc2ccc(Br)cc2)s1 | -17 | 11 | -3 | 2639 | 6 | 4 | 2.6
CCc1ccccc1NC1=CC(=O)CC(C)(C)C1 | -19 | -3 | -3 | 4910 | 9 | -3 | 7.5
CCN(CC)CCNC(=O)/C(=N\O)c1ccccn1 | -20 | · | · | 3970 | · | -5 | ·
COc1cc(/C=C(\C#N)c2ccccn2)ccc1OCc1ccccc1 | -29 | 11 | 9 | 2643 | 4 | -8 | 23
C=CCN(C(=O)c1cc(C)cc(C)c1)C1(C(=O)Nc2ccccc2)CCN(C(C)C)CC1 | -24 | 10 | 7 | 4735 | 9 | · | 0.2
c1coc(-c2nnc(SCc3nc4ccccc4[nH]3)o2)c1 | -11 | 9 | 14 | 10844 | -8 | -2 | 1.7
O=C(CC(C(=O)O)c1cccc(Br)c1)c1ccc(Cl)cc1 (stereo not drawn) | 6 | 6 | 6 | 3044 | 4 | 5 | 44
Cc1cccn2c(=O)c3cc(C(=O)N4CCC5(CC4)OCCO5)n(C)c3nc12 | -11 | -90 | -23 | 10037 | 1 | -9 | 1.6
CC(=O)Nc1cccc(C(=O)/C=C/c2ccco2)c1 | -23 | 7 | 10 | 22380* | 0 | -3 | 4.7
CC(C)NC(=O)CC(=O)NN=Cc1ccc(F)cc1 | · | 4 | 12 | · | 4 | · | 2.6
O=C(COc1ccc(Cl)cc1)Nc1ccccc1Cl | -3 | 5 | -2 | 3081 | 2 | 2 | 5.9
CCOc1ccccc1NC(=S)/C(=C(\[O-])c1ccc2c(c1)OCCO2)[n+]1ccc(CC)cc1 | -5 | 6 | 14 | 6403 | -3 | -9 | 0.3
COc1cc(C(F)(F)F)c(C(=O)N(C)c2ccc(Cl)cc2)cn1 | 9 | 5 | 3 | 3507 | 6 | 3 | 2.0
COc1cccc(C(c2c(N)[nH]c(=S)[nH]c2=O)c2c(N)[nH]c(=S)[nH]c2=O)c1 | -3 | 9 | 11 | 4069 | 6 | -5 | 3.7
Nn1c(SCc2cn3ccsc3n2)nnc1-c1ccncc1 | -9 | · | · | 4450 | 0 | 2 | 0.2
CCCCSc1nc2c(c(C(F)(F)F)c1C#N)CCC2 | -17 | 19 | 9 | 8700 | 38 | 3 | 9.6
Cc1ccc(/C=N/n2c(-c3ccco3)n[nH]c2=S)cc1 | -20 | · | · | 3678 | · | 4 | ·

From PubChem BioAssay
